# CtBP-E1A inh: inhibitors of CtBP/E1A interaction; AlphaScreen GST-E1A/His-CtBP binding, 1536-well; hits give low values; control for the full effect not named in the record; activity change, % (concentration not given with the values); hit rate 0.49% among 340,000; AID 651724; in the data active means activity change below about -65%; inconclusive means about -30% to -65%; inactive means above about -30%; also: % is scaled to controls: 0 for no effect and ±100 for the full control effect
#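 Steps: dispense buffer (Tris pH 8.0, NaCl 300 mM, TCEP 1 mM, BSA, Tween 20); add 5X protein mix (GST-E1A, His-CtBP, 125 nM each); pin 23 nL compound; 2 h at 37 °C, dark; add 5X beads (50 ug/mL); 1 h; read.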
# Sfp inh: Sfp phosphopantetheinyl transferase inhibition; hit rate 3.5% among 310,000; Biochemical Sfp PPTase activity, qHTS; Potency, µM, without a hit: max response, negative = inhibition, most hits filed as inhibitors; active = well fitted inhibition curve with a large enough effect; inconclusive = small, poorly fitted or top-dose-only effect, or another doubt; inactive = no such curve, though single readings can be large or run the other way;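 also: the enzyme is Sfp with the accession as filed and its product quenches rhodamine fluorescence; potency is read from the fitted curve at half-maximal effect; 0% = enzyme reaction without inhibitor and -100% = no enzyme wells; top concentration of the series not given in the record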
#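 Compounds were incubated with enzyme (final 15 nM) for 15 min at room temperature before substrate addition started the reaction. Fluorescence at 525 nm excitation, 598 nm emission was recorded immediately and after 30 minutes.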
# D2 potentiator: human D2 receptor positive allosteric modulation | P14416 | DiscoveRx D2 beta-arrestin cells, luminescence, 90 min; 100% = 57 uM dopamine signal | potentiation, % (test concentration not listed) | hit rate 0.23% among 360,000 | AID 624464; active = potentiation of 50% or more; inconclusive = 30% to 50%; inactive = 30% or less;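 also: compound concentration not given in the record; tested on top of an EC20 dose of dopamine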
#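 PathHunter D2 cells, attached overnight at 37 deg C, received compound in DMSO plus dopamine at EC20 (50 nM final) for 90 min at 37 deg C. Beta-arrestin recruitment was read as luminescence after 1 h with detection reagent at ambient temperature.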
# D2 ag: activates the human D2 dopamine receptor. hit rate 0.084% among 360,000. DiscoveRx PathHunter D2 beta-arrestin, luminescence, 90 min; 100% = 57 uM dopamine signal. P14416. activation, % (concentration not given with the values). AID 624465; in the data active = activation above about 40%; inconclusive = about 15% to 40%; inactive = below about 15%; also: compound concentration not given in the record; the text of the record calls up to 30% inactive
#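 Agonist mode: compounds alone added to overnight-plated D2 PathHunter cells for 90 min at 37 C, with 57 uM final dopamine (EC100) defining full response. Beta-arrestin recruitment detected by chemiluminescent reagent, read after 1 h at ambient temperature.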
# Six1-Eya2 blk: inhibitors of human Six1/Eya2 interaction. Q15475+O00167. activity change, % (concentration not given with the values). AlphaScreen GST-Six1/His-Eya2 binding, biochemical; hits give low values; control for the full effect not named in the record. hit rate 0.56% among 360,000; in the data active = activity change below about -65%; inconclusive = about -30% to -65%; inactive = above about -30%; also: % is scaled to controls: 0 for no effect and ±100 for the full control effect
# Target sequence (O00167 whole entry, looked up): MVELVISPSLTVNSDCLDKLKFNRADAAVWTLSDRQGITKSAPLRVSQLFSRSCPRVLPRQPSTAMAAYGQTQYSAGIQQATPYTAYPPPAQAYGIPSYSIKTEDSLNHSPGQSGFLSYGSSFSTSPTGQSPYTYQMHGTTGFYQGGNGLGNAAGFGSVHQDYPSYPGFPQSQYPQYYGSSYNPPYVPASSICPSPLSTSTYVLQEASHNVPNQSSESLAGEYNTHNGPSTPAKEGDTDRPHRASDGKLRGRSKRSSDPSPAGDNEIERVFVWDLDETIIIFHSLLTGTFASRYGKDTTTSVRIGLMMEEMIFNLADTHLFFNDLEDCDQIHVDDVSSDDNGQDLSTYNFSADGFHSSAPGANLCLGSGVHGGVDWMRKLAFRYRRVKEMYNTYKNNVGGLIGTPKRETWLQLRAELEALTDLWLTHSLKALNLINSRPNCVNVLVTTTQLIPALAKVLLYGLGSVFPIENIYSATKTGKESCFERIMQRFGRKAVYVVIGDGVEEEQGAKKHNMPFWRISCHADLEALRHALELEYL
# Target sequence (Q15475 whole entry, looked up): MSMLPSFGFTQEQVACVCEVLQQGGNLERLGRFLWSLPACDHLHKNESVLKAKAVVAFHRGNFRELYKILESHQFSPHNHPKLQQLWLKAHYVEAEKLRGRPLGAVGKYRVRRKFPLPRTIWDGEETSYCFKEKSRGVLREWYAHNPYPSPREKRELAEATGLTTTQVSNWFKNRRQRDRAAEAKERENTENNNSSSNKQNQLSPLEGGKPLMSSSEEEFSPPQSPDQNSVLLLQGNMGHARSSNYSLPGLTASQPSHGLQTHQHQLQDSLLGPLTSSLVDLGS
#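 Six1/Eya2 binding was read as AlphaScreen signal after compounds were pinned into GST-Six1 plus His-tagged Eya2 (5X stock 250/500 nM) in pH 8.0 Tris/NaCl/TCEP buffer, beads added, then incubated 1 h, 37 C, dark.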
# PINK1 expr mod: PINK1 expression modulation; PINK1 immunofluorescence, high-content cytometry, 24 h; Potency, µM (top dose mostly 76.6 µM), for the others: top-dose activation (PINK1 increase), most hits filed as activators; hit rate 0.2% among 410,000; active = well fitted activation curve with a large enough effect; inconclusive = small, poorly fitted or top-dose-only effect; inactive = flat fitted curve, though single readings scatter; cell line not stated here;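 also: potency is read from the fitted curve at half-maximal effect; % of control where 0% means no effect; nearly all actives have a fitted effect of over 65% in size; a mitochondrial uncoupler was the plate control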
#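 Measures PINK1 amount and localization on or inside mitochondria by immunofluorescence. Stable cells get compounds at 5 concentrations for 24 hours before fixation and staining; CCCP controls included.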
# TRPV1 potentiator: potentiators of human vanilloid receptor 1 (TRPV1); potentiation, % at 8.33 µM; TRPV1-expressing cells, Fluo-8 calcium influx, capsaicin EC20 potentiation; host cell line not named in the record; control for the full effect not named in the record; AID 540277; hit rate 0.02% among 320,000; active means potentiation above 80%; inconclusive means 30% to 80%; inactive means below 30%; also: 0% is about no effect
#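 Cells expressing TRPV1 were dye-loaded with Fluo-8 and read kinetically: 10 s baseline, 3 min after compound (agonist portion), then 2 min after EC20 capsaicin (allosteric enhancer portion). Calcium-bound dye fluorescence at 480/520 nm.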
# Starred values were filed as active, the others as inactive; ? = inconclusive; · = no result given; & = joins results of further samples; ! = not active in a repeat; [ ] = dose if it differs, or a comment. Rows were taken by chance. About 3.7% of those tested had a hit in this group.
mol	Six1-Eya2 blk	Sfp inh	CtBP-E1A inh	TRPV1 potentiator	D2 ag	D2 potentiator	PINK1 expr mod
S=C(NC1CCCCC1)NC1CC2CCC(C1)N2Cc1ccccc1 (stereo not given)	-1.2	24.5%	-4.2	-2.4	-5.5	-22.9	0.5%
Cc1nn(C)c(Cl)c1C(=O)NCC(=O)O	-1.5	12.7%	7.7	-1.1	-5.1	-1.3	1.6%
O=C(CCNS(=O)(=O)c1cccc2nsnc12)NCc1ccco1	1.0	1.3%	2.9	-7.6	-1.3	-3.6	-0.9%
Cc1ccc2[nH]c(=O)c(CN(C)C(=O)c3ccccn3)cc2c1	-1.8	10.4%	1.0	-3.9	-0.4	-5.4	-1.3%
Cc1ccc(N2CC(C(=O)Nc3cc(C(F)(F)F)ccc3N3CCCC3)CC2=O)cc1 (stereo not given)	4.0	·	-22.4	11.0	-4.0	-15.0	9.1%
O=C(COC(=O)c1ccco1)NC1CCCC1	5.7	8.6%	0.5	-16.1	-2.8	-4.3	0.2%
Cc1cccc(N2CCN(CCNC(=O)c3cc4c(s3)CS(=O)(=O)C4)CC2)c1C	-1.6	2.1%	-6.1	-21.3	11.7	-9.3	0.9%[38.3 µM]
O=C(O)c1cc2ccc3cccc4ccc(c1)c2c34	-6.8	16.2%	·	-1.3	3.6	1.9	1.4%
Cc1[nH]c2ccccc2c1C(c1ccccn1)N1CCCC1 (stereo not given)	-1.3	-3.4%	5.0	-1.5	-2.2	4.6	1.6%
O=C(Nc1nncs1)c1cccc(S(=O)(=O)N2CCc3ccccc32)c1	-4.1	11.7%	·	-1.9	2.1	-0.1	-0.5%
CCn1nc(C)cc1C(=O)NC1CC(C)(C)Cc2c1cnn2-c1cccc(F)c1 (stereo not given)	-3.8	10.3%	-0.9	-7.4	-2.7	-19.7	4.9%
CN1CCC(=NNC(=O)CN(c2ccccc2)S(=O)(=O)c2ccccc2)CC1	2.3	11.8%	18.0	2.5	3.1	17.1	3.1%
O=C(CN1C(=O)CSc2ccc(S(=O)(=O)N3CCOCC3)cc21)NCc1cccnc1	-5.4	16.3%	-1.6	0.5	-4.4	-2.6	1.1%
CCCC(=O)Nc1ccc(Cc2ccc(NC(=O)CCC)c(C(=O)O)c2)cc1C(=O)O	52.3	8.2%	-20.0	11.3	1.5	6.9	1.1%
COc1ccc(S(=O)(=O)Nc2ccc(N3CCOCC3)cc2)cc1Br	-2.9	3.6%	-1.5	26.3	-0.4	-35.9	-1.2%
O=S(=O)(NCc1ccco1)N1CCCCCC1	3.5	2.6%	12.3	25.0	-2.3	-11.3	0.6%
O=C(CCC(=O)c1ccc(Cl)cc1)OCn1nnc2ccccc2c1=O	6.8	·	0.0	·	-0.5	3.9	0.7%
CC(=O)NC(CC(=O)OCC(=O)c1c(N)n(CC(C)C)c(=O)n(C)c1=O)c1ccccc1 (stereo not given)	0.3	·	3.7	3.2	-4.9	11.1	1.5%
O=C1COc2ccc(C(=O)COC(=O)CNC(=O)C3CCCCC3)cc2N1	15.6	-12.2%	1.1	3.1	-2.9	-5.0	0.8%
CN1C(=O)C2(OCC(COc3ccc(Cl)cc3)O2)c2ccccc21 (stereo not given)	11.1	-13.7%	8.9	0.7	4.2	-5.9	-2.1%[38.3 µM]
COc1ccccc1N1CCN(c2ccc(-c3ccccc3)nn2)CC1	-8.4	11.2%	21.0	-7.4	-3.3	-9.1	2.5%
O=C(c1cc2sccc2n1Cc1ccccc1)N1CCCc2ccccc21	-6.9	-3.0%	0.0	-9.6	-0.2	-12.0	0.6%
CCOC(=O)c1c(C)[nH]c(C)c1C(=O)CSc1nc(N)cc(=O)[nH]1	-2.6	12.2%	-10.1	0.8	-1.0	-14.9	1.0%
COc1ccc(C2N(C(=O)C(F)(F)F)C(C)CN2S(=O)(=O)c2ccc(C)cc2)cc1 (stereo not given)	0.6	2.0%	-4.2	-6.5	1.2	-5.6	1.9%
Cc1cc(C)cc(N)c1	2.2	·	6.4	3.0	3.1	-2.6	-0.4%
CS/C(=N\S(=O)(=O)c1cccs1)NC(=O)CSc1nc2ccccc2s1	-22.9&-10.2	?	-11.2&-9.5	?	0.9&1.1	-6.1&-7.6	1.3%&-0.9%
COc1ccccc1N1CCN(S(=O)(=O)CCNC(=O)C23CC4CC(CC(C4)C2)C3)CC1	-2.4	-2.2%	·	8.9	-0.8	-15.0	-1.5%
Cc1ccc(C2=NN3C(=O)c4ccccc4C3C2)cc1 (stereo not given)	2.9	11.9%	-2.6	·	-6.8	-13.3	0.0%
CCN(CC)C(=O)c1ccc2nc([C@H]3C[C@H](O)[C@@H](CO)O3)[nH]c2c1	13.3	·	-16.7	·	-2.4	-8.6	1.0%
COc1ccccc1CN(Cc1nc2ccccc2c(=O)[nH]1)C(=O)Nc1ccc(C)cc1	-4.5	-1.3%	-0.1	4.9	-4.3	-9.8	0.7%[38.3 µM]

# By substructure: those above containing an aryl thioether with sulfur outside any ring
mol	Six1-Eya2 blk	Sfp inh	CtBP-E1A inh	TRPV1 potentiator	D2 ag	D2 potentiator	PINK1 expr mod
CCOC(=O)c1c(C)[nH]c(C)c1C(=O)CSc1nc(N)cc(=O)[nH]1	-2.6	12.2%	-10.1	0.8	-1.0	-14.9	1.0%
CS/C(=N\S(=O)(=O)c1cccs1)NC(=O)CSc1nc2ccccc2s1	-22.9&-10.2	?	-11.2&-9.5	?	0.9&1.1	-6.1&-7.6	1.3%&-0.9%

# (next part)
mol	Six1-Eya2 blk	Sfp inh	CtBP-E1A inh	TRPV1 potentiator	D2 ag	D2 potentiator	PINK1 expr mod
O=c1c(O)c(-c2ccc(O)c(O)c2)oc2cc(O)ccc12	?	39.8µM*!	-74.2*	·	11.3	-1.0	-0.7%&0.5%
Cc1ccc(S(=O)(=O)N(C)C)cc1NC(=O)COC(=O)/C=C/c1cccs1	-4.0	·	-2.8	27.4	-4.3	-17.0	0.9%
O=C(O)c1cc(O)ccc1NC(=O)C1CCCO1 (stereo not given)	12.3	16.3%	0.0	3.2	0.0	-2.9	1.2%
Cc1c(NC(=O)c2c(F)cccc2F)c(=O)n(-c2ccccc2)n1C	-2.0	12.8%	5.2	8.2	-4.5	-6.1	2.0%
Cc1cc(C)cc(NC(=O)COC(=O)COc2ccc(N(C)S(=O)(=O)c3cccs3)cc2)c1	3.9	·	3.6	·	-5.6	6.5	1.2%
C=C(C)COc1ccc(-c2n[nH]c(C)c2-c2ccccc2OC)c(O)c1	-4.3	24.7%	1.3	6.6	-4.5	-10.3	8.2%
CCOC(=O)N1CCC(Nc2c(NCCN3CCN(c4cccc(Cl)c4)CC3)c(=O)c2=O)CC1	0.6	16.6%	-4.6	1.9	-5.8	0.2	1.1%
COc1ccc([N+](=O)[O-])cc1/C=N/NC(=O)Cc1ccccc1	-7.9	11.0%	·	-2.5	-10.1	-19.6	1.8%
COc1ccc(C(=O)OCC(=O)c2cc(OC)ccc2OC)c(OC)c1	-3.3	-10.0%	4.0	11.8	-1.6	?	1.1%
COc1ccccc1CNC(=O)c1ccc(S(=O)(=O)N2CCCC2)cc1	8.9	3.8%	13.2	-4.5	-0.9	2.9	7.3%[38.3 µM]
Cc1ccc(CSC2=Nc3sccc3C3=NC(=O)CN23)cc1	-18.2	-9.0%	-14.3	-1.3	2.0	-14.2	·
CCC(CC)C(=O)Nc1c2c(nn1-c1ccc(OC)cc1)CS(=O)(=O)C2	2.1	24.6%	8.6	-13.6	-0.4	-5.5	?
COc1ccc(N(CC(=O)N2CCOCC2)S(C)(=O)=O)cc1	10.7	5.4%	-11.6	1.4	-1.6	-6.3	-1.7%
CCc1nc2ccc(C(=O)NCCCN3CCCC3=O)cn2c1N(C)C(=O)C1CCCCC1	6.0	·	7.6	·	-1.2	-4.5	0.9%
CC(=O)OCc1c(C(F)(F)F)nn(C)c1Sc1ccccc1	24.0	5.5%	28.2	-4.0	-1.7	-2.7	3.0%
CC(C)(C)OC(=O)NCCc1onc(-c2cccc([N+](=O)[O-])c2)c1C(=O)O	-2.8	·	5.6	·	-3.8	-0.2	3.2%
CCCCCCCC(=O)Nc1ccc(C(=O)N/N=C/c2cccc([N+](=O)[O-])c2)cc1	5.4	4.3%	0.5	2.0	-4.4	-1.1	1.0%
O=C(C1CCC(CNc2c(N3CCCCC3)c(=O)c2=O)CC1)N1CCCC1 (stereo not given)	4.4	7.7%	·	-8.5	-7.5	-11.6	0.0%
CCOc1ccccc1-n1c(SCC(=O)Nc2ccc(CC)cc2)nc2n[nH]c(C)c2c1=N	-15.3	8.5%	3.4	4.5	-1.3	-5.7	8.6%
CCc1nc(OCC(=O)c2ccccc2)c(C#N)c2c1COC(C)(C)C2	3.4	-5.1%	7.8	-18.2	0.2	16.9	-1.1%
COc1ccc(-c2cc3nc(-c4ccccc4)cc(N4CCCC(O)C4)n3n2)cc1 (stereo not given)	7.3	-4.8%	·	7.0	-0.8	-3.1	0.8%
Cc1ccc(CNC(=O)C2CCCN(Cc3cnn(-c4ccccc4)c3-n3cccc3)C2)cc1 (stereo not given)	-1.4	11.0%	1.2	-4.8	-1.5	-14.6	-1.6%
C/C(=C/CCC(C)[C@H]1CC[C@@]2(C)C3=C(CC[C@]12C)[C@@]1(C)CCC(=O)C(C)(C)[C@@H]1CC3)C(=O)O (stereo not given in full)	6.4	2.6%	1.9	1.1	-4.9	-6.2	0.2%
CCCn1c(=O)n(C)c(=O)c2c(SCC(=O)NC34CC5CC(CC(C5)C3)C4)nc(CC(C)C)nc21	0.4	-1.5%	0.9	4.0	-1.1	-1.6	1.2%
CN(CCO)CC(O)CN(c1ccccc1)c1ccccc1 (stereo not given)	-1.0	-11.8%	·	10.9	-6.6	-0.5	1.4%
CCc1sc(C(=O)Nc2nccs2)cc1C	-6.9	6.6%	-5.3	-6.9	-1.6	-10.4	6.4%
CCCCn1c(SCC(=O)c2ccc(OCC)cc2)nc2cc(S(N)(=O)=O)ccc21	-0.2	1.5%	3.7	-2.6	-1.2	-4.2	10.1%
COc1ccc(Br)c(C(=O)Nc2ccc(F)cc2)c1	-0.8	8.3%	-11.8	-12.1	2.0	-2.6	0.1%
COc1ccc(C(CCN2CCCC2)c2c(O)cc(OC)cc2OC)cc1 (stereo not given)	16.2	-12.0%&-5.9%	19.4	?	1.4	-16.9	3.8%

# High-throughput results deposited in PubChem by National Center for Advancing Translational Sciences (NCATS).
